NPYLR7 agonist: activates Aedes aegypti NPYLR7 receptor; HEK293T NPYLR7/Galpha15, GCaMP6s calcium fluorescence; activation, % at 10 µM; hit rate 0.15% among 270,000; in the data active = activation above about 40%;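 also: 0% = vehicle and 100% = reference agonist at the receptor; some compounds past the cut are filed as inactive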
NPYLR7 agonist max-min: also measured in NPYLR7 agonist; calls as there; activation, %; measured here: Max-Min RFU normalised activation; some inactives read as strong as hits;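 span of the calcium signal over five minutes; 0% = vehicle and 100% = native peptide agonist; compound fluorescence can raise it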
An asterisk follows results filed as active; & = joins results of further samples. A portion of the library; count on the stated rates, not on these rows.

SMILES	NPYLR7 agonist	NPYLR7 agonist max-min
O=C(c1cccnc1/C=C/c1ccccc1)N1C[C@H]2CC[C@@H]1C2	-3	-4
COC(=O)c1ccc(N=Cc2nc(-c3ccc(Cl)cc3)oc2O)cc1	19	9
CCC(C)n1c(C)c(C)n2c3c(=O)n(CC(=O)OC)c(=O)n(C)c3nc12 (centres undefined)	0	1
Cc1ccc(S(=O)(=O)N2CCN(Cc3nc(-c4ccccc4Cl)no3)CC2)c(C)c1	6	4
c1ccc(-c2nc(CN3CCCC3c3ccccn3)no2)cc1 (centres undefined)	1	0
CCOc1cc2c(cc1OCC)CN(C(=O)CCN1C(=O)COc3ccccc31)CC2	0	6
O=C(Cc1ccc(Cl)cc1Cl)NCc1ccc2c(c1)OCCO2	8&2	5&2
O=C(NCc1cccc(F)c1)c1csc(COc2ccc3c(c2)OCO3)n1	2	4
COCCN(CC(=O)N(Cc1cccn1Cc1ccccc1)C1CCCCC1)C(=O)/C=C/c1ccccc1	-5	-4
CCOCC(=O)NNC(=O)c1ccc(=O)n(Cc2ccc(Cl)cc2)c1	-8	-12
NC(=O)Cc1cc(=O)[nH]c(=S)[nH]1	1	-2
COc1cc(OC)cc(-c2nnc(SCc3cc(F)ccc3F)n2C2CCCCC2)c1	31	30
NC(=O)COC(=O)C=Cc1ccc(I)o1	1	0
COc1cccc(C2CNCC2CN(CC(C)C)C(C)=O)c1 (centres undefined)	17	12
CC(C)c1ccc(CC(=O)N2CCC2(C)C(=O)NCc2cccnc2)cc1 (centres undefined)	11	10

3 compounds drawn at random from the list so far, as already listed:
SMILES	NPYLR7 agonist	NPYLR7 agonist max-min
COc1cccc(C2CNCC2CN(CC(C)C)C(C)=O)c1 (centres undefined)	17	12
NC(=O)Cc1cc(=O)[nH]c(=S)[nH]1	1	-2
COCCN(CC(=O)N(Cc1cccn1Cc1ccccc1)C1CCCCC1)C(=O)/C=C/c1ccccc1	-5	-4

(list continues)
SMILES	NPYLR7 agonist	NPYLR7 agonist max-min
COc1ccc(NC(=O)C2CC2c2ccc(F)cc2)cc1NS(C)(=O)=O (centres undefined)	5	2
CC1NC(=S)N(CCCc2[nH]nc(N)c2C#N)C1=O (centres undefined)	8	6
COc1cccc(CN2CCN(Cc3nc(-c4ccc(SC)cc4)oc3C)CC2=O)c1	1	-4
CC(C)N(CC1COc2ccccc2O1)C(=O)c1cc(C2CC2)[nH]n1 (centres undefined)	-7	-8
O=C(c1ccc(Cl)cc1Cl)N1CCN(c2cc(Oc3ccc(F)c(Cl)c3)ncn2)CC1	0	7
Cc1ncc(CN2CCCC2c2nc(-c3ccccc3)no2)[nH]1 (centres undefined)	0	-1
Cc1ccc(C2(O)CCN(C(=O)c3cc4sccc4[nH]3)CC2)nc1	-3	-6
COc1ccc(C(=O)N2CCC2(C)C(=O)O)cc1OC (centres undefined)	0	-3
O=C(NCCc1ccccc1)N1CCn2cccc2C1c1ccc(Cl)cc1 (centres undefined)	8	5
Cc1csc(=O)n1CC(=O)OCC(=O)c1ccc(Cl)s1	1	2
Cn1ncc(C(=O)N2CCN(C(c3ccccc3)c3ccc(F)cc3)CC2)c1Cl (centres undefined)	3	-5
Nc1n[nH]c(N)c1Cc1cccc(Br)c1	5	8
O=C(C1COC2(CCCCC2)N1C(=O)c1ccccc1F)N1CCOCC1 (centres undefined)	1	16
Cc1cc(F)ccc1S(=O)(=O)N1CCCOC1CNC(=O)C(=O)NCCCc1ccccc1 (centres undefined)	-1	-1
Cc1cccc(OC(C)C(=O)Nc2nc(C(C)C)cs2)c1 (centres undefined)	7	2
CCCCN(Cn1nc(-c2cccc(OC)c2)n(C)c1=S)C1CCS(=O)(=O)C1 (centres undefined)	-1	1
CC12CCC(c3c(C(=O)O)nn(-c4ccc(F)cc4)c31)C2(C)C (centres undefined)	1	-8
COC(=O)c1cc(OC)c(OC)cc1NC(=O)CCc1ccsc1	-4	-6
OC1CNC(c2ccc(C(F)(F)F)cc2)C1 (centres undefined)	7	684
CC1CCN(C(=O)CCNC2CCSC2)CC1 (centres undefined)	-5	10
COc1ccc(C(=O)N(CCN2CCOCC2)CC(=O)N(Cc2ccccc2)Cc2ccc(C)o2)c(OC)c1	4	21
O=C(O)C1CCCN1S(=O)(=O)c1ccc(Br)s1 (centres undefined)	15	14
CCCCCc1ccc(C(=O)CSc2nnc(NC(=O)COC)s2)cc1	1	6
CC1(C(=O)N2CCN(C(=O)c3ccco3)CC2)CCN1Cc1ccccc1Cl (centres undefined)	6	-2
CCCNc1nc(SCCC)nc2c1cnn2CCNC(=O)c1ccco1	-2	-5
COc1ccc(C(=O)N(CC(=O)N(CCc2ccc(OC)c(OC)c2)Cc2cccs2)CC(C)C)c(OC)c1	5	16
CN(C)C(CNC(=O)c1ccc(C(F)(F)F)cc1)c1c(F)cccc1Cl (centres undefined)	7	1
O=C(Oc1cccc2cccnc12)c1ccc(S(=O)(=O)c2ccc(Cl)cc2)cc1	-6	-9
Cc1cccc(Nc2nc3nonc3nc2N/N=C\c2cn(Cc3ccc(Cl)cc3Cl)c3ccccc23)c1C	16	6
Cn1cc(S(=O)(=O)NC2CCCC2)c(=O)n(C)c1=O	-2	-2
CSc1ccccc1NC(=O)Cc1csc(NC(=O)c2ccc[nH]c2=O)n1	7	9
O=C(c1nc2sccn2c1CN1CCc2ccccc2C1)N1CCCCC1	2	4
Cc1ccc(C)c(S(=O)(=O)N2CCN(C(=O)NCCCc3ccccc3)CC2)c1	18	24
CCCn1c(-c2cc(OC)c(OC)c(OC)c2)nc2c(c(=O)c3ccccc3n2C)c1=O	0	-4
COCCN(Cc1nccs1)Cc1cc2ccccc2[nH]c1=O	8	-1
Cc1ccc(S(=O)(=O)N2CCC(C(NC(=O)c3ccccc3C)C(=O)NC(C)C(C)C)CC2)cc1 (centres undefined)	1	3
COc1cccc(-c2ccccc2NC(=O)C2CCN(Cc3cccc4c3OCO4)CC2)c1	-8	-11
CCc1[nH]nc(S(=O)(=O)N2CCN(c3cc(Cl)ccc3C)CC2)c1C(=O)OC	-2	-2
CCCN(CC(C)(C)O)c1cc(CC)nc(-c2ccncc2)n1	7	3
O=C(Cc1ccccc1)Nc1nnc(SCC(=O)Nc2cc(C(F)(F)F)ccc2Cl)s1	-4	7
O=c1[nH]c(=O)c2cnc3sc4c(c3c2[nH]1)CCCCC4	11	1
CCn1cnc(S(=O)(=O)N(C)c2ccc(Br)cn2)c1	-2	0
O=C(c1ccccc1Oc1ccccc1)N1CC(c2cccnc2)C1	3	1
Cc1ccc(Nc2nc(C)cc(C)c2C#N)c(C)c1	0	0
Cc1ccccc1NCC(=O)NC1CCCCCC1	0	-2
CC(c1ccc(F)cc1)N(C)Cc1nc2sccn2c1Br (centres undefined)	6	2
COc1ccccc1N1CCN(C(=O)[C@H]2O[C@H](CCN(C)CCN(C)C)CC[C@@H]2O)CC1	-6	-9
COc1ccc(CCN2CCN(C(=O)c3cnn(C(C)(C)C)c3)CC2)cc1	11	7
Cc1cnc(C)c(-c2cc(O)c3c(c2)CN(CCC2CCCN2C)CCO3)n1 (centres undefined)	5	-1
COCCn1c(C)cc(C(=O)COC(=O)c2[nH]c(C)c(C(C)=O)c2C)c1C	0	6
COc1ccc(CCN(C)c2cc(-c3ccccc3)nc(SCc3cccc(C(=O)NCC4CCCO4)c3)n2)cc1OC (centres undefined)	4	3
Cc1oc(-c2ccccc2Cl)cc1-c1nn2c(-c3ccco3)nnc2s1	-4	-7
COc1ccc(-c2cc(C(F)(F)F)n3nc(C(=O)Nc4cc(OC)cc([N+](=O)[O-])c4)cc3n2)cc1	-13	-18
COC(=O)Cc1ccccc1NC(=O)C1CCCC1	5	161
CN(CC(=O)NNC(=O)c1ccc(Cl)cc1)S(=O)(=O)c1cccs1	2	7
CC(C)NC(=O)CN1CCN(C(=O)c2cn(C(C)C)cc3c(=O)n(-c4ccccc4)nc2-3)CC1	-5	-7
CCOC(=O)N1CCN(C(=O)CC(c2cccc3c2OCO3)c2c[nH]c3c(CC)cccc23)CC1 (centres undefined)	5	8
COc1ccc(C2c3cccn3-c3ccccc3N2C(=O)CN(C(=O)COc2ccccc2)C2CC2)cc1 (centres undefined)	1	-8
CC(C)COCC(O)CNc1ccc(-n2nc(OCC(C)C)nc2-c2ccc(C(F)(F)F)cc2)cc1 (centres undefined)	-3	3
CC(C)c1ccc(CN(C)Cn2nc(-c3cccs3)n(CC(N)=O)c2=S)cc1	6	10

Part of the list above, in CSV form:
Compound,NPYLR7 agonist,NPYLR7 agonist max-min
CN(CC(=O)NNC(=O)c1ccc(Cl)cc1)S(=O)(=O)c1cccs1,2,7
CC(C)NC(=O)CN1CCN(C(=O)c2cn(C(C)C)cc3c(=O)n(-c4ccccc4)nc2-3)CC1,-5,-7
Cc1cnc(C)c(-c2cc(O)c3c(c2)CN(CCC2CCCN2C)CCO3)n1 (centres undefined),5,-1
Cc1oc(-c2ccccc2Cl)cc1-c1nn2c(-c3ccco3)nnc2s1,-4,-7
COc1ccccc1N1CCN(C(=O)[C@H]2O[C@H](CCN(C)CCN(C)C)CC[C@@H]2O)CC1,-6,-9

New compounds follow
SMILES	NPYLR7 agonist	NPYLR7 agonist max-min
CCOC(=O)CCC[n+]1c(C)n(N)c2ccccc21	1	12
C=CCn1c(=NC(=O)c2ccccc2SC)sc2cc(S(C)(=O)=O)ccc21	4	0
O=C(Cn1nnnc1CN1CCCC1)N1CCN(C2CCCC2)C(=O)C1	0	-5
CC(C)NC(=O)c1ccnc(N2CCN(Cc3ccn(C(C)C)c3)CC2)c1	7	4
CC(NC(=O)CN(C)C1CCCc2ccccc21)c1ccc2c(c1)OCO2 (centres undefined)	0	-1
Cc1cc(C)cc(-n2nc3c(c2NC(=O)c2ccccc2C)CSC3)c1	0	6
COC(=O)C1=C(C)NC(=O)C1(Nc1nc(C)cc(C)n1)C(F)(F)F (centres undefined)	-5	-11
O=C(CSc1nc(=O)n(CCN2CCOCC2)c2c1CCC2)Nc1nc2ccccc2s1	0	-2
Cc1ccc(NC2CCCN(C(=O)c3cc(-c4cccn4C)n[nH]3)C2)cc1C (centres undefined)	4	0
COc1cn(CC(=O)NCCc2ccccc2)c(CN2CCCCC2)cc1=O	1	2
Cc1csc(NC(=O)CSc2cc(F)ccc2F)n1	1	2
Cc1nc(C2CCCN(C(=O)C(=O)Nc3cccc(C#N)c3)C2)no1 (centres undefined)	-3	-5
CN(C)c1nc(C=O)c(Cl)n1-c1ccccc1	1	0
CCC(NCCc1ccc(O)cc1)C(=O)NC1CCCCC1 (centres undefined)	4	3
N[C@@H](Cc1cscn1)C(=O)N1CCN(Cc2ccccc2CO)CC1	-18	-18
Cc1cccc(C(=O)NC(C(=O)NC2CC2)C2CCN(C(=O)c3ccc(F)cc3)CC2)c1 (centres undefined)	9	6
CCc1ccc(CN2CCC(CCC(=O)NCC3CCCN3CC)CC2)o1 (centres undefined)	2	0
COc1ccc(CCC(=O)Nc2c3c(nn2CC(=O)NCC2CCCO2)CSC3)cc1 (centres undefined)	-2	5
Cc1cccc(COn2cccc(C(=O)Nc3ccccc3[N+](=O)[O-])c2=O)c1	0	11
O=C(O)CCN(Cc1ccccc1)C(=O)c1ccoc1	17	8
CC(C)SC(NC(=O)OCc1ccccc1)C(=O)Nc1ccc(Oc2ccccc2)cc1 (centres undefined)	20	11
CCOc1ccc(C2NC(=O)NC(C)=C2C(=O)OCc2ccco2)cc1OC (centres undefined)	12	13
C(=C(C1CC1)C1CC1)c1nc(-c2ccncc2)no1	1	1
O=C(CCc1cn2ccccc2n1)N1CCOC(Cc2ccccc2)C1 (centres undefined)	8	1
Cc1ccc(-n2nc(C)c(Nc3c(C#N)c(=O)n(C)c(=O)n3C)c2C)cc1	-3	-3
CC(C)c1ccccc1OC1CC2CCC(C1)N2C(=O)c1ccc(CSc2nnnn2-c2ccccc2)cc1 (centres undefined)	12	1
Cc1ccsc1CNC(=O)N1CCC(OCC2CCCO2)CC1 (centres undefined)	10	6
O=C(c1ccc(CO)o1)N1C[C@H]2CC=CC[C@H]2C1	10	7
CC(=O)N(c1cccc(C)c1)c1nc(COC(=O)c2occc2C)cs1	-3	-1
Cc1nc(CC(=O)NCc2cc(CC(C)C)on2)cs1	-1	8
Cc1ccc(-c2nc(C)c(C(=O)NC(C)CCC3CCCO3)s2)c(C)c1 (centres undefined)	1	7
O=C(c1ccc(Cn2cnnn2)cc1)N1CCN(CC2CCCO2)CC1 (centres undefined)	-17	-14
CC(=O)c1ccc(NC(=O)CSc2nc(=O)n(CCN3CCOCC3)c3c2CCCC3)cc1	-3	3
COc1cc2c(cc1NC(=O)C(F)(F)C1(F)OC(F)(F)C(F)(F)C1(F)F)oc1ccccc12 (centres undefined)	3	2
COc1ccc(C2CC(c3cccc(F)c3)=NN2C(=O)CN2CCN(c3ccccc3F)CC2)cc1 (centres undefined)	21	21
C=CCN1C(=O)C(Cc2ccccc2)NC12CCN(C(=O)c1ccc(C)cc1)CC2 (centres undefined)	25	11
COCCNC(=O)COC(=O)c1cc(Br)cc(Br)c1N	8	5
CC(CO)CN(Cc1ccccc1)C(=O)c1cccc2cccnc12 (centres undefined)	-3	-4
CC(C)CC(=O)N(Cc1c(-c2ccccc2)noc1N1CCCC1)C1CC1	3	5
COc1ccc(C(=O)NCCCOc2cccnc2)cc1OC1CCN(C(C)=O)CC1	8	4

Exported in markdown: part of the list above.
| SMILES | NPYLR7 agonist | NPYLR7 agonist max-min |
| --- | --- | --- |
| COCCNC(=O)COC(=O)c1cc(Br)cc(Br)c1N | 8 | 5 |
| CC(CO)CN(Cc1ccccc1)C(=O)c1cccc2cccnc12 (centres undefined) | -3 | -4 |
| CC(C)CC(=O)N(Cc1c(-c2ccccc2)noc1N1CCCC1)C1CC1 | 3 | 5 |

Source: PubChem
